Mtb growth: Mycobacterium tuberculosis H37Rv growth inhibition, cell based, confirmatory dose response (AID 1949) | M. tuberculosis H37Rv growth inhibition | most inactive calls were filed without a number and no value below 0 was filed | inhibition, % at 10 µg/mL; hits with a dose series show IC50 in µg/mL | actives 1.6% (n = 100,000);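 active = confirmed in a dose series; inconclusive = about 50% or more but not retested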;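 note: bacteria grown 7 days with compound before Alamar blue readout; 0% = untreated bacteria and 100% = reference antibiotic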
Numbers without * were called inactive; i = inactive; ? = inconclusive. Not all compounds are listed; rates above refer to the full screens.

A first look, 20 compounds:
SMILES	Mtb growth
FC(F)(F)c1cccc(Nc2nc(-c3cccnc3)nc3ccccc23)c1	?
O=C(O)c1ccc(NS(=O)(=O)c2cccc(F)c2)cc1	i
Cc1ccc(SCC(=O)N2CC(C)OC(C)C2)cc1 (centres undefined)	4%
CCSCCNC(=S)NC(=O)c1cncc(Br)c1	i
CCSc1n[nH]c(-c2ccc(Cl)cc2)n1	i
Cc1cc(I)ccc1Nc1nc(=O)c2cccnc2s1	i
Clc1cc(Br)ccc1OCCCN1CCOCC1	i
O=C1NC(c2ccccc2)(c2ccccc2)C(=O)N1CCCOc1ccccc1	2%
Cc1cccc(C(=O)NCCc2nc3ccccc3n2Cc2ccccc2)c1	i
COC(=O)c1sc(NC(=O)c2cc(Cl)ccc2Cl)c(C(=O)OC)c1C	i
COc1ccc(-c2ccc(CCC(=O)O)n2-c2cc(Cl)ccc2O)cc1	i
CN(C)CC(=O)Nc1ccccc1[N+](=O)[O-]	i
COc1ccccc1COc1ccc2c(oc(=O)c3ccccc32)c1C	2%
COC(=O)c1cccc(NC(=O)CN(c2ccc(C)c(Cl)c2)S(C)(=O)=O)c1C	2%
CCC(C(=O)N1CCC(C)CC1)c1ccccc1 (centres undefined)	i
CCCc1ncc(C(O)c2cccc3ccccc23)n1C (centres undefined)	i
COc1ccc(-c2noc(CC(=O)O)c2-c2ccc(OC)cc2)cc1	i
Cc1ccc(-c2csc3nc(SCC(=O)N4CCCCC4)n(-c4ccccc4)c(=O)c23)cc1	i
O=C(Cc1ccccc1)NC(=S)Nc1ccc2oc(-c3cncc(Br)c3)nc2c1	9%
CCOc1ccc(NC(=O)CC2Sc3ccccc3NC2=O)c([N+](=O)[O-])c1 (centres undefined)	i

Main list, previewed entries included:
SMILES	Mtb growth
FC(F)(F)c1cccc(Nc2nc(-c3cccnc3)nc3ccccc23)c1	?
O=C(O)c1ccc(NS(=O)(=O)c2cccc(F)c2)cc1	i
Cc1ccc(SCC(=O)N2CC(C)OC(C)C2)cc1 (centres undefined)	4%
CCSCCNC(=S)NC(=O)c1cncc(Br)c1	i
CCSc1n[nH]c(-c2ccc(Cl)cc2)n1	i
Cc1cc(I)ccc1Nc1nc(=O)c2cccnc2s1	i
Clc1cc(Br)ccc1OCCCN1CCOCC1	i
O=C1NC(c2ccccc2)(c2ccccc2)C(=O)N1CCCOc1ccccc1	2%
Cc1cccc(C(=O)NCCc2nc3ccccc3n2Cc2ccccc2)c1	i
COC(=O)c1sc(NC(=O)c2cc(Cl)ccc2Cl)c(C(=O)OC)c1C	i
COc1ccc(-c2ccc(CCC(=O)O)n2-c2cc(Cl)ccc2O)cc1	i
CN(C)CC(=O)Nc1ccccc1[N+](=O)[O-]	i
COc1ccccc1COc1ccc2c(oc(=O)c3ccccc32)c1C	2%
COC(=O)c1cccc(NC(=O)CN(c2ccc(C)c(Cl)c2)S(C)(=O)=O)c1C	2%
CCC(C(=O)N1CCC(C)CC1)c1ccccc1 (centres undefined)	i
CCCc1ncc(C(O)c2cccc3ccccc23)n1C (centres undefined)	i
COc1ccc(-c2noc(CC(=O)O)c2-c2ccc(OC)cc2)cc1	i
Cc1ccc(-c2csc3nc(SCC(=O)N4CCCCC4)n(-c4ccccc4)c(=O)c23)cc1	i
O=C(Cc1ccccc1)NC(=S)Nc1ccc2oc(-c3cncc(Br)c3)nc2c1	9%
CCOc1ccc(NC(=O)CC2Sc3ccccc3NC2=O)c([N+](=O)[O-])c1 (centres undefined)	i
O=[N+]([O-])c1ccc(Oc2c(F)c(F)c(C(F)(F)F)c(F)c2F)cc1	i
Cc1cccc(C(=O)Nc2nnc(C(F)(F)F)s2)c1[N+](=O)[O-]	i
Nc1ccc(N2CCN(C(=O)c3ccc(Cl)cc3)CC2)cc1	i
CSc1ncc(Cl)c(C(=O)N(Cc2ccccc2)c2ccccn2)n1	i
CS(=O)(=O)N(CC(=O)Nc1ccc(F)cc1F)c1ccc(Br)cc1	i
CCCc1cc(=O)oc2c(C)c(OCC(=O)Nc3c(C)cccc3C)ccc12	i
CCOc1ccc(NC(=S)Nc2ccc(Br)cc2Cl)cc1	?
CCCNc1c(N)n(-c2ccccc2)c(=O)[nH]c1=O	i
COc1cc(Br)cc2cc(C(=O)N3CCOCC3)c(=O)oc12	i
COC(=O)c1c(NC(=S)N2CCN(c3ncccn3)CC2)sc2c1CCC(C)C2 (centres undefined)	i
Cc1ccc(-c2cc(C(=O)O)no2)cc1	19%
COc1ccc(NS(=O)(=O)c2ccc(OC)c(Cl)c2Cl)cc1Cl	1%
Cc1ccc2oc(C(=O)N(Cc3ccc(C(C)C)cc3)C3CCS(=O)(=O)C3)c(C)c2c1 (centres undefined)	i
Cc1cc(Br)ccc1OCC(=O)N(C)c1ccccc1	3%
CN1CCC(NC(=O)c2cc(Br)ccc2Cl)CC1	i
CS(=O)(=O)N(CCc1ccccc1)CC(=O)Nc1ccc2c(c1)OCO2	i
Cc1cc(Cl)ccc1N(CC(=O)Nc1ccccc1-c1ccccc1)S(=O)(=O)c1ccccc1	i
O=C(c1cccc(COCC(F)(F)C(F)F)c1)N1CCN(c2ccccc2)CC1	i
CCN1C=C(C(=O)OC)C(c2ccc(OC)c(OC)c2OC)C(C(=O)OC)=C1	i
CSc1ccccc1NC(=O)CN(C)S(=O)(=O)c1ccc(C)cc1	i
O=C(CSc1ccc(F)cc1)N1CCCC1	i
CCCCSc1nnc2c(n1)[nH]c1ccccc12	i
CN1CCN(CCOCCOc2ccccc2-c2ccccc2)CC1	i
Cc1cccc(CSc2nnc(NC(=O)CCc3ccccc3)s2)c1	i
CCOc1ccc(Br)cc1S(=O)(=O)N1CCN(C)CC1	i
Cc1c(OCC(=O)c2cccc([N+](=O)[O-])c2)ccc2c3c(c(=O)oc12)CCCCC3	2%
CC(Oc1ccc(C(C)(C)C)cc1)C(=O)Nc1ccc(N(C)C)cc1 (centres undefined)	4%
COc1ccc(-c2csc(NC(=S)NC(=O)c3ccc(C)c(C)c3)n2)cc1	i
CCc1cc(=O)oc2cc(OC(C)C)c(Cl)cc12	1%
CCc1c(C)sc(NC(=O)C2C3C=CC(C3)C2C(=O)O)c1C(=O)OC (centres undefined)	i
COc1cccc(NC(=O)Cn2c(-c3nonc3N)nc3ccccc32)c1	i
CN(Cc1ccccc1)C(C#N)c1c[nH]c2ccccc12 (centres undefined)	i
O=C(c1ccco1)N1CCN(c2c(-c3ccccc3)c3cc(Cl)ccc3[nH]c2=O)CC1	5%
O=C(N/C(=C/c1cccc(Br)c1)C(=O)N1CCCCC1)c1ccco1	i
Cc1sc2ncn(CC(=O)NCc3ccco3)c(=O)c2c1-c1ccccc1	3%
COc1cccc(NC(=O)c2ccc(NC(=O)Cc3ccc(Cl)cc3)cc2)c1	i
CCCn1nnc(NC(=O)c2ccc3ccccc3c2)n1	i
Cc1nnc(SCC(=O)Nc2cccc(-c3nc4ccccc4s3)c2)s1	i
Cc1cccc(Oc2coc3cc(OCC(=O)Nc4ccc(Cl)cc4)ccc3c2=O)c1	i
Cc1cc(C)n(C(=O)CSc2ccc(Cl)cc2)n1	i
The list continues:
SMILES	Mtb growth
COc1cccc(C(=O)COc2nc3c(C(F)(F)F)cc(C4CC4)nc3o2)c1	5%
O=C(Nc1ccc(C(=O)N2CCOCC2)cc1)c1cccc([N+](=O)[O-])c1	i
O=C(NC(=S)Nc1ccc2c(c1)Cc1ccccc1-2)c1ccc2c(c1)OCO2	5%
CC(=O)Nc1ccc(S(=O)(=O)N2CCN(c3ccc([N+](=O)[O-])c(N4CCCC4)c3)CC2)cc1	i
O=C(COc1ccc(S(=O)(=O)NCCc2ccccc2)cc1)N1CCN(c2ccc(F)cc2)CC1	5%
CCCC(=O)NC(c1ccccc1)c1c(O)ccc2ccccc12 (centres undefined)	i
CC(=O)c1c(N2CCC(C(N)=O)CC2)nc(=S)n(-c2ccccc2)c1C	0%
C/C(=N/N=C1\NC(=O)C(Cc2ccc(Cl)cc2)S1)c1ccc(F)cc1 (centres undefined)	19µg/mL*
CCn1c(SCC(=O)Nc2ccc(Cl)cc2Cl)nnc1C(C)NC(=O)c1ccc(Cl)c(Cl)c1 (centres undefined)	i
CSc1cccc(NC(=O)c2ccc(C(C)(C)C)cc2)c1	i
COc1ccc(Br)cc1CN1CCN(Cc2c[nH]c3ccccc23)CC1	22%
CCCCC(=O)NC(=S)Nc1ccc(I)cc1CC	i
CC(C)S(=O)(=O)c1ccc(COC(=O)c2cccc(-c3nnc(-c4ccccc4)o3)c2)cc1	5%
Cc1ccccc1OCC(=O)Nc1nonc1NC(=O)COc1ccccc1C	2%
Fc1cnc(Nc2ccccn2)nc1N1CCOCC1	i
Cc1cc(C(F)F)n2nc(C(=O)Nc3ccc(S(=O)(=O)N4CCCC4)cc3)nc2n1	i
CCn1ncc(Br)c1C(=O)Nc1ccccc1Cl	i
COc1ccc(NC(=S)Nc2cccc(F)c2)cc1OC	i
COc1ccccc1NC(=O)CSc1nnc(CNC(=O)c2ccc(Br)cc2)n1C	i
O=C(CSc1nnc(-c2ccncc2)n1-c1ccccc1)Nc1nccs1	i

Overlap with the part before: two compounds, followed by the next part.
SMILES	Mtb growth
COc1ccccc1NC(=O)CSc1nnc(CNC(=O)c2ccc(Br)cc2)n1C	i
O=C(CSc1nnc(-c2ccncc2)n1-c1ccccc1)Nc1nccs1	i
CN1C(=O)C(O)(CC(=O)c2ccccn2)c2ccccc21 (centres undefined)	i
Cc1cc(I)cnc1NC(=O)CSc1ccc(Cl)cc1	i
S=C(Nc1ccccc1)N1CCCCCC1	16%
CCC(=O)c1ccc(OCCCNCCN(C)C)cc1	i
N#Cc1ccc(NC(=O)C(=O)NCc2ccncc2)cc1	i
O=C(O)CCS(=O)(=O)c1ccc(-c2ccccc2)cc1	i
CC(=O)c1cccc(NC(=S)NCc2ccccc2)c1	i
O=C(CCSc1ccccc1)Nc1ccc(OCc2ccccc2)cc1	5%
COc1ccc(C)cc1S(=O)(=O)N(CC(=O)Nc1ccc2c(c1)OCCO2)c1ccccc1	i
CSc1ccccc1NC(=O)CN(c1ccccc1Cl)S(=O)(=O)c1ccccc1	i
COC(=O)c1ccc(Cl)c(NC(=O)c2ccccc2I)c1	i
S=c1[nH]nc(CCc2ccccc2)n1-c1ccc(Cl)cc1	i
O=C(Cc1cccs1)N1CCN(C(=O)C2CCCO2)CC1 (centres undefined)	i
Cc1onc(-c2ccccc2)c1C(=O)Nc1nnc(C(C)C)s1	i
CC1(C)CC(=O)C2=C(C1)Nc1ccccc1NC2c1cccnc1 (centres undefined)	i
Cc1ccc(-n2c(SCC(=O)NCc3ccccc3)nnc2-c2ccccc2)cc1	i
S=C(NC1CCCCCC1)NC1CCCC1	0%
Cc1ccc(CCC(=O)Nc2ccc3ccccc3c2)o1	i
COc1ccc(C2C(Oc3ccc(Cl)cc3C)C(=O)N2c2cccc([N+](=O)[O-])c2)cc1OC (centres undefined)	i
CC(=O)Nc1ccc(NC(=O)c2ccc(CN(c3ccccc3)S(=O)(=O)c3ccccc3)cc2)cc1	i
Cc1c(NC(=O)c2cnn3c2NC(c2ccco2)CC3C(F)(F)F)c(=O)n(-c2ccccc2)n1C (centres undefined)	i
O=C(CCNS(=O)(=O)c1ccc(Cl)cc1)N1CCN(c2ccccn2)CC1	1%
CC(CC(=O)Nc1ccc2c(c1)OCO2)c1ccccc1 (centres undefined)	i
COc1ccc(S(=O)(=O)N(CC(=O)Nc2cccc(F)c2)c2ccccc2OC)cc1	i
COc1cc(C)c(NC(=O)Cn2cc(C#N)c3ccccc32)cc1C	i
COc1cccc2c(=O)c(CN3CCCCC3)c(C)[nH]c12	i
COc1ccc(NS(=O)(=O)c2ccc3[nH]c(=O)[nH]c3c2)cc1	i
Cc1ccc(OCc2ccccc2C(=O)Nc2ccccn2)cc1	10%
O=C(CSc1n[nH]c(-c2ccccc2)n1)Nc1nc2c(s1)CCCC2	i
O=C(CSc1nc2sc3c(c2c(=O)[nH]1)CCCC3)N1CCCC1	i
Cn1c(=O)c(Sc2ccccc2)c(Sc2ccccc2)c2ccccc21	i
Cc1ccccc1N(CC(=O)Nc1ccccc1C(=O)NCc1ccco1)S(=O)(=O)c1ccccc1	5%
Cc1occc1C(=O)Nc1ccc(S(N)(=O)=O)cc1	8%
CC(C)Nc1nc(SCC(N)=O)nc(N2CCOCC2)n1	i
O=C(Cc1ccc(F)cc1)NCCc1ccccc1	4%
O=C(Nc1ccccc1F)c1c(NC(=O)c2cccc3ccccc23)sc2c1CCC2	i
CCn1c(=N)c(S(=O)(=O)c2ccc(Cl)cc2)cc2c(=O)n3ccccc3nc21	i
O=C(Nc1ccc(Cl)c(Cl)c1)Nc1nnc(Cc2cccc(Br)c2)s1	i
CCOC(=O)c1cc(CC)sc1NC(=O)CC1Nc2ccccc2NC1=O (centres undefined)	i
CCN(c1ccccc1)S(=O)(=O)c1ccc(NC(=O)c2ccccc2Br)cc1	i
COc1ccc(NC(=O)Cc2ccccc2OC)c(OC)c1	i
O=C(COc1ccc(Cl)cc1Cl)NCCN1CCCC1	i
COCc1nnc(NC(=O)c2ccccc2Br)s1	i
S=C(NCCc1ccccc1)NC1CC1	i
Cn1c2c(c(=O)n(C)c1=O)C1(C(=O)Nc3ccc(F)cc31)C(C#N)=C(N)O2 (centres undefined)	i
CCNC(=O)Cn1cnc2c1c(=O)n(C)c(=O)n2C	4%
CC(=O)Nc1nc2ccccc2n1CCCN(C)C	i
O=C(Nc1cccc2ccccc12)OC1C=CS(=O)(=O)C1 (centres undefined)	1%
NS(=O)(=O)c1ccc(NS(=O)(=O)c2ccc(NC(=O)CCC(=O)O)cc2)cc1	i
O=c1[nH]c2ccc(NC(=S)NC3CCCCC3)cc2[nH]1	i
CCOC(=O)COc1ccc(Br)cc1/C=C(\C#N)c1nc2ccccc2[nH]1	i
Cc1cnc(NC(=O)CSc2nc3ccccc3[nH]2)s1	i
COc1ccccc1NC(=O)c1ccc(CSc2ccccc2)cc1	27%
Cc1[nH]c2ccccc2c1C(=O)CSc1ncnc2sc(C)c(C)c12	i
COCc1nc2ccccc2n1Cc1ccc(Cl)c(Cl)c1	i
COc1ccc(-c2nnc(NC(=O)c3cccs3)s2)cc1	4%
COc1ccc(CC(=O)Nc2cccc(-c3nc4ccccc4[nH]3)c2)cc1OC	1%
COc1ccc(C(=O)c2oc3ccc4c(C)cc(=O)oc4c3c2C)cc1	i
O=c1c2ccccc2nc(SCc2ccccc2Cl)n1Cc1ccco1	5%

High-throughput results: PubChem, Southern Research Institute
